LASV entry inh: qHTS for Inhibitors of binding or entry into cells for Lassa Virus; Potency, µM (series often up to 37.9 µM), for the others: at the highest dose activity change, negative = inhibition, hits mostly inhibitors; hit rate 1.2% among 300,000; Lassa virus pseudotype entry inhibition, cell reporter; control for the full effect not named in the record; AID 540256, 2011; active means well fitted inhibition curve with a large enough effect; inconclusive means small, poorly fitted or top-dose-only effect, or effect the other way; inactive means flat fitted curve, though single readings scatter; tested in HEK293 cells; also: % is scaled to controls: 0 for no effect and ±100 for the full control effect; nearly all actives have a fitted effect of over 50% in size; luciferase read-out
Marburg entry inh: qHTS for inhibitors of binding or entry into cells for Marburg Virus; hit rate 1.8% among 300,000; AID 540276, 2011; Marburg virus pseudotyped entry inhibition, cell reporter; control for the full effect not named in the record; about a third of the inactives were read at about 46 µM; Potency, µM (titrated, usually from 37.8 µM), without a hit: top-dose activity change, negative = inhibition, actives largely listed as inhibitors; active = well fitted inhibition curve with a large enough effect; inconclusive = small, poorly fitted or top-dose-only effect, or effect the other way; inactive = flat fitted curve, though single readings scatter; tested in HEK293 cells; about a fifth of its hits are not listed in these tables; also: % is scaled to controls: 0 for no effect and ±100 for the full control effect; luciferase read-out
Cruzain noTriton: qHTS Assay for Promiscuous and Specific Inhibitors of Cruzain (without detergent); purified cruzain, Z-FR-AMC fluorescence, no detergent; Potency, µM, without a hit: max response, negative = inhibition, most hits filed as inhibitors; hit rate 2.3% among 200,000; AID 1476, 2009;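 also: plate controls were enzyme without inhibitor for no effect and buffer without enzyme for full effect; nearly all actives have a fitted effect of over 40% in size; top concentration of the series not given in the record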
Target sequence (P25779 123-467 limits assumed): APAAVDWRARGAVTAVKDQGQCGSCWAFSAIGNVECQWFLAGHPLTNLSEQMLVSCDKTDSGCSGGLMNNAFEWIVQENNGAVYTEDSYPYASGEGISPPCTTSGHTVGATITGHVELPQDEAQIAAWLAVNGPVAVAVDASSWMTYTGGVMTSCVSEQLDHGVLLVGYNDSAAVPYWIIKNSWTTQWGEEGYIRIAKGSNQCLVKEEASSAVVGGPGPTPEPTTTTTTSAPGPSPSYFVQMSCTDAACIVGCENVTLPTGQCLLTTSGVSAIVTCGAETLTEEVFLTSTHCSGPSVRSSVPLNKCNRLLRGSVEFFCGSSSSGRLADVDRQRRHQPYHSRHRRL
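Purified cruzain at 1.5 nM, pre-incubated 15 min with compound at room temperature in 100 mM sodium acetate pH 5.5, 5 mM DTT, 0.00005% Triton X-100. Reaction started with 2 uM Z-FR-AMC; AMC fluorescence increase over 60 s gives rate.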
StopGo reporter: High Throughput Screening for Foot and Mouth Disease Virus Antivirals | human cells with a luciferase reporter of 2A StopGo recoding; control for the full effect not named in the record | Potency, µM (highest dose often 57.9 µM), without a hit: at the top dose signal change, negative = less light | hit rate 1.2% among 410,000 | AID 1159524, 2015; active = well fitted falling curve with a large enough effect; inconclusive = small, poorly fitted or top-dose-only effect; inactive = no such curve, though single readings can be large or run the other way; tested in HEK293T cells; also: % is scaled to controls: 0 for no effect and ±100 for the full control effect; nearly all actives have a fitted effect of over 45% in size; luciferase light after 4 h
RE007 growth inh: qHTS Assay for Inhibitors of the HIV-1 protein Vpr | S. pombe RE007 Vpr strain, BacTiter-Glo ATP luminescence, 24 h; control for the full effect not named in the record | Potency, µM (highest dose often 92.2 µM), inactives show at the highest dose activity change, negative = less growth | hit rate 0.21% among 360,000 | AID 651644, 2012; active = well fitted falling curve with a large enough effect; inconclusive = small, poorly fitted or top-dose-only effect; inactive = no such curve, though single readings can be large or run the other way;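 also: % is scaled to controls: 0 for no effect and ±100 for the full control effect; nearly all actives have a fitted effect of over 50% in size; the assay follows cell death caused by Vpr and the record does not say whether a fall means rescue or toxicity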
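Fission yeast strain RE007, carrying one chromosomally integrated HIV-1 vpr copy, was seeded at OD 0.01 in PMG+AL medium with 23 nL pinned compound. After 24 h at 30 °C and 99% humidity, viability was read by BacTiter-Glo luminescence.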
Cruzain Triton: qHTS Assay for Promiscuous and Specific Inhibitors of Cruzain (with detergent). hit rate 0.43% among 200,000. AID 1478, 2009. Potency, µM, without a hit: max response, negative = inhibition, most hits filed as inhibitors. Cruzipain (Trypanosoma cruzi), P25779. purified cruzain, Z-FR-AMC fluorescence, 0.01% Triton;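 also: plate controls were neutral wells for no effect and buffer without enzyme for full effect; nearly all actives have a fitted effect of over 40% in size; top concentration of the series not given in the record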
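Compounds were screened in titration against cruzain (1.5 nM) with 0.01% Triton X-100 to counter colloidal aggregation. Activity was the AMC fluorescence increase over 60 s after adding 2 uM Z-FR-AMC at pH 5.5.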
NS1 inh: qHTS Assay for Inhibitors of Influenza NS1 Protein Function; hit rate 0.4% among 270,000; S. cerevisiae slowed by influenza A NS1, growth recovery by OD600; Potency, µM (doses to about 46.1 µM), inactives show at the highest dose activity, positive = more growth; active means well fitted rising curve with a large enough effect; inconclusive means small, poorly fitted or top-dose-only effect; inactive means no such curve, though single readings can be large or run the other way; also: nearly all actives have a fitted effect of over 50% in size
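In this qHTS, NS1 from influenza A is expressed in budding yeast, where it slows growth. Cells are switched from glucose to 2% galactose medium (pH 6.0, -URA), treated with compound, and growth recovery is read at OD600.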
SARS PLP yeast: qHTS of Yeast-based Assay for SARS-CoV PLP; S. cerevisiae expressing SARS-CoV PLpro, growth rescue; control for the full effect not named in the record; Potency, µM (highest dose often 32.9 µM), without a hit: at the highest dose activity, positive = growth rescue; hit rate 0.19% among 330,000; AID 485353, 2010; active means well fitted rising curve with a large enough effect; inconclusive means small, poorly fitted or top-dose-only effect; inactive means no such curve, though single readings can be large or run the other way; also: 0% is about no effect; nearly all actives have a fitted effect of over 55% in size; growth read by luminescence after 48 h
Numbers without * were called inactive; ? = inconclusive; . = not tested or not shown; & = joins results of further samples; [ ] = another dose, or the depositor's remark. Unless noted, calls follow the shape of the dose curve; as a rule, active = well fitted curve in the direction sought with a large enough effect; inconclusive = small, poorly fitted or top-dose-only effect, or another doubt; inactive = no such curve, though single readings can be large; an effect the other way counts as inactive or inconclusive. Potency is read from the fitted curve at half-maximal effect.

SMILES | LASV entry inh | Marburg entry inh | Cruzain noTriton | StopGo reporter | RE007 growth inh | Cruzain Triton | NS1 inh | SARS PLP yeast
COc1cccc(-n2c(SCC(=O)NCCC3=CCCCC3)nc3n[nH]c(C)c3c2=N)c1 | -7.7% | ? | ? | ? | 15.8% | -1.0% | 0.0% | 1.6%
O=C(CNC(=O)c1ccc(Br)cc1)NCC(=O)OCc1ccc(Cl)cc1 | . | . | . | 14.8% | 10.4% | . | 2.7% | -0.9%
Cc1cccc(NC(=O)Cn2c(=O)oc3cc(S(=O)(=O)N4CCCC4)ccc32)n1 | . | . | . | ? | -3.5% | . | -4.5% | -0.4%
Cc1cc(C(=O)NCC(c2cccs2)N2CCOCC2)ccc1[N+](=O)[O-] (stereo not given) | ? | ? | . | -14.7% | -16.4% | . | 0.8% | 8.0%
CCOC1CCCCC1NS(=O)(=O)c1ccc(Cl)cc1 (stereo not given) | 18.4% | -17.8% | -3.2% | . | 1.0% | -3.3% | 11.2% | ?
O=C(O)c1ccccc1N(Cc1ccccc1)C(=O)CO/N=C/c1ccccc1 | -23.1%[46.1 µM] | -1.6%[46.1 µM] | 17.2% | 13.0% | 0.0% | -2.8% | 22.0% | 23.9%
O=C(CCC(=O)c1ccccc1)Nc1ccccc1 | 8.2% | 0.0%[14.2 µM] | . | 14.4% | -9.4% | . | . | .
CC(=O)Nc1ccc2c(c1)Cc1ccc(Cl)cc1-2 | -4.0%[46.1 µM] | ? | . | 22.4% | -8.1% | . | . | .
Cn1c(=O)n(C)c2cc(/C=N/NC(N)=S)ccc21 | 15.9% | 0.9%[46.1 µM] | . | 4.8% | 7.0% | . | . | 5.8%
CN(c1ccccc1C(=O)Nc1cccnc1)S(C)(=O)=O | 1.5% | 0.1% | -7.2% | 11.0% | -5.0% | 2.6% | -1.1% | .
O=C(CCCc1ccccc1)NCc1ccc(F)cc1 | 11.4% | 8.2% | -0.7% | 15.0% | 2.6% | 1.3% | 4.0% | 14.8%
O=C(NCN1CCOCC1)c1cnccn1 | 18.8%[46.1 µM] | 0.1%&0.1%[46.1 µM] | . | 24.1% | 1.3% | . | 2.4% | 1.4%
COc1ccc(NC(=O)c2c(NC(=O)c3ccncc3)sc3c2CCC(C(C)(C)C)C3)cc1 (stereo not given) | 2.9%[46.1 µM] | -20.6%[46.1 µM] | 0.7% | ? | . | -1.7% | . | .
C=CCn1c(SCC(=O)c2c(N)n(C)c(=O)n(C)c2=O)nc2sc(C)c(C)c2c1=O | 19.6% | 0.6% | 20.7% | -12.5% | -7.4% | 8.9% | ? | -3.1%
CCC1(c2ccc(F)cc2)NC(=O)N(CC(=O)Nc2ccccc2Cl)C1=O (stereo not given) | ? | ? | . | -1.4% | -11.7% | . | -2.8% | 0.0%

Entries above that contain an aryl methoxy group:
SMILES | LASV entry inh | Marburg entry inh | Cruzain noTriton | StopGo reporter | RE007 growth inh | Cruzain Triton | NS1 inh | SARS PLP yeast
COc1cccc(-n2c(SCC(=O)NCCC3=CCCCC3)nc3n[nH]c(C)c3c2=N)c1 | -7.7% | ? | ? | ? | 15.8% | -1.0% | 0.0% | 1.6%
COc1ccc(NC(=O)c2c(NC(=O)c3ccncc3)sc3c2CCC(C(C)(C)C)C3)cc1 (stereo not given) | 2.9%[46.1 µM] | -20.6%[46.1 µM] | 0.7% | ? | . | -1.7% | . | .

Next part:
SMILES | LASV entry inh | Marburg entry inh | Cruzain noTriton | StopGo reporter | RE007 growth inh | Cruzain Triton | NS1 inh | SARS PLP yeast
CC(C)NC(=S)N1CCN(S(=O)(=O)c2cccc(C(F)(F)F)c2)CC1 | 3.3% | 4.5% | -0.6% | -1.9% | -1.7% | -0.6% | 11.1% | 18.4%
COC(=O)c1cc2occc2n1Cc1cccc(C)c1 | 12.4%[46.1 µM] | -29.4%&-1.0%[46.1 µM] | -4.9% | -14.3%&3.2% | 10.6% | -5.0% | . | -0.2%
CCc1ccccc1NC(=O)N1CCc2c([nH]c3ccccc23)C1c1ccc(C)cc1 (stereo not given) | ? | ? | ? | -9.9% | . | -3.4% | . | .
COc1c(C(=O)NNC(=O)c2ccccc2)csc1Br | ? | -23.3% | . | 63.4%[activator] | ? | . | -3.6% | -1.7%
Cc1ccccc1N(CC(=O)NC(C)(C)C)C(=O)CS(=O)CC(=O)Nc1ccc2c(c1)OCO2 (stereo not given) | 4.6%[46.1 µM] | -13.5%[46.1 µM] | . | -3.4% | 10.1% | . | -8.3% | 0.4%
COc1ccc(C2NC(=S)NC(O)(C(F)(F)F)C2C(=O)c2cccs2)cc1 (stereo not given) | 8.5% | -24.6% | -4.9% | 0.0% | ? | -1.0% | 12.2% | -1.9%
O=C(Nc1ccccc1C(F)(F)F)n1ncc2cc(Cl)ccc21 | 23.5%[46.1 µM] | 2.2%[46.1 µM] | -1.6% | 14.8% | . | -0.7% | . | .
O=C(CSc1nc2ccccc2c(=O)n1NC(=O)Cc1ccccc1)NCc1ccco1 | 4.3% | 1.3% | -7.7% | 0.0% | 15.2% | 1.0% | 1.1% | -2.8%
O=C(COc1ccccc1Cl)Nc1ccccc1C(=O)N1CCOCC1 | -6.9% | 21.5% | . | 41.5%[activator] | 5.7% | . | 3.6% | -2.5%
CN1/C(=C/c2cccc[n+]2CCO)Sc2ccccc21 | -0.8% | -23.6% | . | -15.9% | -25.8% | . | -2.6% | 0.3%
CCc1ccc(C(=O)OCC(=O)NCC(F)(F)F)cc1 | . | 3.7%[46.1 µM] | . | 3.6% | 12.3% | . | . | -2.2%
Cc1ccc(C(=O)Nc2cccc(NC(=O)c3ccc(C)o3)n2)o1 | ? | -3.8%[46.1 µM] | . | 11.4% | -4.5% | . | -46.4% | -11.7%
C=CCSc1nc(C)c2cc(C)cc(C)c2n1 | ? | 15.0% | 12.6% | -1.8% | -19.3% | -5.6% | -63.5% | -12.1%
O=[N+]([O-])/C(=C\Nc1ccc(F)cc1F)S(=O)(=O)c1ccccc1 | . | . | . | -3.8% | 15.0% | . | -1.2% | 5.0%
C[C@@H]1CC[C@@]2(OC1)O[C@H]1C[C@H]3[C@@H]4CC=C5C[C@@H](O)[C@H](O)C[C@]5(C)C4CC[C@]3(C)[C@H]1[C@@H]2C (stereo not given in full) | . | . | . | -16.5% | 4.6% | . | 11.8% | -0.7%
COc1ccc(CN2CC(=O)N(c3ccc(C)cc3)C2=S)cc1OC | -8.2% | -4.7% | 0.4% | -24.7% | 50.3% | -1.8% | 14.3% | 22.4%
CCN(N=O)c1ccc(C=C2C=Cc3ccccc32)cc1 | 3.98µM* | ? | . | -13.8% | -4.8% | . | . | .
O=C1N=C(N2CCN(c3ccccc3)CC2)S/C1=C\c1cn[nH]c1-c1ccccc1 | 1.6% | ? | -21.2% | -26.3% | 2.8% | -7.1% | 11.7% | -4.5%
O=C(CCCN1C(=O)c2ccccc2C1=O)Nc1ccccc1C(=O)N1CCOCC1 | -7.1% | 0.5% | -2.0% | -19.8% | -2.7% | -1.9% | -6.3% | 2.5%
CCOC(=O)CNc1c(-c2ccc(Cl)cc2)nc2cnccn12 | 17.4% | 4.6% | -10.9% | -15.0% | -0.2% | -2.2% | -57.4% | -4.1%
O=[N+]([O-])c1ccc(Cl)c(S(=O)(=O)Nc2cccc(-c3ccc(N4CCOCC4)nn3)c2)c1 | -36.7% | ? | . | 60.2%[activator] | -20.4% | . | . | 1.8%
COc1ccc(CCn2c(S)nc3ccccc3c2=O)cc1 | . | . | . | 43.4%[activator] | -3.2% | . | 2.0% | 2.7%
CCOc1ccc(NC(=O)CN(C)C(=O)c2cccnc2Sc2ccc(C)c(C)c2)cc1OCC | -10.0% | 0.7% | . | -20.5% | -1.5% | . | -3.1% | 1.3%
CCOC(=O)CC1COc2ccccc2N1C(=O)c1ccc(F)cc1 (stereo not given) | 13.5% | ? | . | -16.4% | 5.6% | . | . | -0.5%
CCOc1ccc(CN(CCc2ccc3c(c2)OCO3)Cc2cccc(Br)c2)cc1 | -20.8%[46.1 µM] | . | -5.7% | ? | . | -2.3% | . | .
CCOCCc1nnc(NC(=O)c2cccc(F)c2)s1 | 18.9% | ? | 1.9% | 18.4% | -5.1% | 2.3% | -31.8% | -3.9%
Cc1cccc(NC(=O)c2ccccc2OCC(=O)c2ccccc2)c1 | -44.5% | ? | -1.7% | 1.3% | -11.7% | -4.2% | -5.5% | 6.4%
COc1ccc(NC(=O)c2cc(C)nc3c2c(C)nn3-c2cccc(Cl)c2C)c(OC)c1 | ? | . | -3.0% | -11.0% | . | -2.5% | . | .
C/C(=N\NC(=O)c1cccc(S(=O)(=O)N2CCOCC2)c1)c1ccc(C#N)cc1 | -1.5% | -5.3% | . | ? | -13.7% | . | -2.2% | -1.4%
C/C(CC(=O)N1CCCC1)=N\NC(=O)c1cc2ccccc2cc1O | . | . | . | 0.0% | -0.6% | . | ? | 8.9%
COc1ccc(N(CC(=O)N2CCN(c3cccc(OC)c3)CC2)S(=O)(=O)c2c(C)noc2C)cc1 | ? | -17.4%[46.1 µM] | ? | -22.2% | . | -2.7% | . | .
CCC(NC(=O)c1ccccc1NC(=O)c1ccccc1)C(=O)NNC(=O)c1cccnc1 (stereo not given) | . | . | . | -2.6% | 2.2% | . | -1.9% | 0.7%
CCOC(=O)C1CCN(C(=O)Cn2ncc3c4ccccc4n(Cc4ccc(F)cc4)c3c2=O)CC1 | ? | -8.5%[46.1 µM] | ? | -25.7% | . | -12.4% | . | .
O=[N+]([O-])c1cccc(N=Cc2ccccc2)c1 | 16.6%[46.1 µM] | 2.3%[46.1 µM] | . | -1.4% | -12.6% | . | . | .
Cn1c(SCC(=O)NCc2ccc3c(c2)OCO3)nnc1C1COc2ccccc2O1 (stereo not given) | 7.0% | 7.0% | -12.4% | 17.8% | 7.2% | 6.2% | -1.2% | 7.6%

Screening data (PubChem)

Outcome played no part in choosing rows. Share with any hit: about 4.6%.
